UCH37 inh = inhibitors of human UCH37 deubiquitinase, primary screen, biochemical, Ub-AMC cleavage, fluorescence | purified proteasome/UCH37 | actives 0.33% (n = 330,000) | Ubiquitin carboxyl-terminal hydrolase isozyme L5 (Homo sapiens), Q9Y5K5 | inhibition, % (concentration not given with the values);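 active = mean of two replicates above 20%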;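 note: 0% = compound-free wells with enzyme and 100% = wells lacking proteasome; stock transfer was 100 nL into about 20 µL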
Target sequence (Q9Y5K5 whole entry, looked up): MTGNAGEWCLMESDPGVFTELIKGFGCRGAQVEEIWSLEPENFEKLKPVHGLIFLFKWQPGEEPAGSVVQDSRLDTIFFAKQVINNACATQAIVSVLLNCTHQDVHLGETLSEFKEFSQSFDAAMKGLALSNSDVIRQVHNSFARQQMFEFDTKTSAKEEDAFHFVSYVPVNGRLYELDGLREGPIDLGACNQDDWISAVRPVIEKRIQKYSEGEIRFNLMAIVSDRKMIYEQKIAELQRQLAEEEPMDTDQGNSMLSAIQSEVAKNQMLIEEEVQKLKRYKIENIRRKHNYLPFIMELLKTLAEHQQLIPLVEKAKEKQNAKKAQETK
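System: Proteasome-associated human UCH37 deubiquitinase; Input: 0.15 nM proteasome in added enzyme buffer; Also added: Ub-AMC substrate from 1 µM stock; Incubation: 30 min compound-proteasome preincubation then 25 min substrate reaction, room temperature; Detection: fluorescence, ex 355 nm, em 460 nm; Read-out: % inhibition of Ub-AMC cleavage fluorescence; Benchmarks: no-proteasome and no-compound wells.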
A1 inh = caspase 3/7 activation in MEF A1-2A-BIM cells, primary screen, A1 inhibitor project, cell-based, luminescence, HTS; Caspase-Glo 3/7 luminescence, 3 h; percent of clofoctol response, vehicle zero; caspase activation, % (concentration not given with the values); actives 0.066% (n = 330,000); AID 2462, 2010;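 active = over half of replicate activation scores above 10%, or exactly half above 10 with the replicate mean above 10; inconclusive = replicate mean below 10 yet half the replicates above 10; inactive = over half of replicates below 10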;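 note: wells of about 30 µL received 50 nL stock; many hits fall short of the cut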
FGF22 binding = binders of human FGF22 protein, primary screen, FGF22 synaptogenesis inhibitor project, biophysical, thermal shift, single point. recombinant FGF22 thermal shift, SYPRO orange fluorescence; percent of sucrose octasulfate shift, DMSO zero. calls only at 9.99 µM. actives 1.5% (n = 340,000);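 active = melting point raised past a set limit in the mean and every replicate; inconclusive = no clear call; three in four hits are not shown here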
Target sequence (Q9HCT0 whole entry, looked up): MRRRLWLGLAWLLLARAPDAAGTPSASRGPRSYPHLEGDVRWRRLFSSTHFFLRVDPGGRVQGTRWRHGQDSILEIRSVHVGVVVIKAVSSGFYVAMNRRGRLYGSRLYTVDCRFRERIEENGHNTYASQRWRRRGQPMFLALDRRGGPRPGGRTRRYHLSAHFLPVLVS
Beta apoptosis = inhibitors of cytokine-induced beta cell apoptosis, primary screen, luminescence | INS-1E cytokine-induced death, ATP luminescence, 48 h; percent of positive-control rescue, neutral wells zero | protection from apoptosis, % (test concentration not listed) | actives 0.8% (n = 300,000);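 active = all replicates at 75% or more, or half of them and the mean; inconclusive = half reach 75% but not the mean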;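 note: 0% = cytokine-treated negative control wells and 100% = positive control rescue; higher means more ATP so stronger rescue from cytokine killing; wells of about 40 µL received 100 nL stock; the first replicate is given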
E coli growth = E. coli growth inhibition, primary screen, OD600; Escherichia coli growth, 23 h; stronger effect = lower value; OD600 absorbance (concentration not given with the values); actives 0.21% (n = 330,000);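 active = OD600 absorbance below the run mean of sample wells minus 3.6 SD, in any replicate, cut at about 0.56 in these data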;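 note: stock transfer was 300 nL into about 60 µL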
T cruzi inh = inhibitors of intracellular T. cruzi growth, primary screen, luminescence, NIH3T3 host cells. T. cruzi beta-gal in NIH3T3, 90 h. inhibition, % (no concentration beside the values). actives 1.4% (n = 300,000). AID 1885, 2009;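 active = mean inhibition across valid replicates above about 55%, limit read from the data; inconclusive = mean below that limit but half or more replicates reach it; inactive = mean below it, under half of replicates reach it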;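 note: signal also drops with host cell toxicity which is not excluded here; 0% = plate median of DMSO wells and 100% = zero luminescence signal; higher percent means less beta-gal luminescence so fewer parasites; stock transfer was 50 nL into about 50 µL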
rRNA inh HTS = reduced GFP signal of wild-type E. coli, primary screen, bacterial rRNA inhibitor project, GFP/RFP fluorescence, OD600, single point; E. coli WT GFP vs humanized-ribosome RFP mutants, 24 h; stronger effect = lower value; DMSO median 0, no signal -100; AID 720706, 2013; actives 1.6% (n = 350,000); GFP signal change (wild-type ribosome), % (no concentration beside the values);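 active = significant combined selectivity score with lowered wild-type GFP, culture density cut under 30%, mutant RFP and density less affected; inactive = any of these conditions unmet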; note: one replicate is shown; some compounds called inactive have numbers as strong as hits
MLL AF4-AF9 inh = inhibitors of AF4 peptide binding to AF9, primary screen, biochemical, AlphaScreen, biotin-AF4 peptide, FLAG-AF9, single point. Protein AF-9 (Homo sapiens), P42568. inhibition, % at 10 µM. actives 0.47% (n = 350,000);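 active = every replicate reaching a set inhibition limit, whatever the replicate mean, cut at about 25% in these data; inconclusive = mean inhibition reaches that limit but some replicates miss it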;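 note: 0% = plate neutral control median and 100% = total signal loss; the record names both 10 and 1 µM as test concentration; the first replicate is given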
Target sequence (P42568 whole entry, looked up): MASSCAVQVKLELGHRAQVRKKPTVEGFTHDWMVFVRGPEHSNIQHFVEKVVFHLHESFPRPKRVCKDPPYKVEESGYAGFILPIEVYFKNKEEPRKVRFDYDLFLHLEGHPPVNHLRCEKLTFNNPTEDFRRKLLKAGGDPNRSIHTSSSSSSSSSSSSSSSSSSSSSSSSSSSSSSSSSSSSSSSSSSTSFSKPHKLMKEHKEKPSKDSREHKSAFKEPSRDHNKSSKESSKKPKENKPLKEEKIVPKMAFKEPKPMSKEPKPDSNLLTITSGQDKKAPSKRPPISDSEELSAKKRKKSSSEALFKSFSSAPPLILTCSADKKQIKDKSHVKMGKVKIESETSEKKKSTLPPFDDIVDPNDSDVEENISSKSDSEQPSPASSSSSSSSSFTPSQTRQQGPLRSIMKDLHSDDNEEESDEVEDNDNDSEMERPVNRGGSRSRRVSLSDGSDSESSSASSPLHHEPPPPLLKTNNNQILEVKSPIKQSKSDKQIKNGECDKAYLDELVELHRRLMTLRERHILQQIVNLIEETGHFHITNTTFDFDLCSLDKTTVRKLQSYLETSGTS
rRNA inh HTS OD600 = recorded beside rRNA inh HTS, whose call it bears; OD600 change, %; measured here: OD600 growth;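 optical density of the mix in the first replicate; 0 = DMSO median and -100 = no signal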
rRNA inh HTS RFP = recorded beside rRNA inh HTS, whose call it bears; RFP signal change, %; measured here: RFP humanized mutant strains;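 first replicate; 0 = DMSO median and -100 = no signal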
Starred values were filed as active, the others as inactive; i = inactive; ? = inconclusive; . = not tested or not shown. Not all compounds are listed. The share of hits here may be higher or lower than overall.

SMILES | UCH37 inh | A1 inh | FGF22 binding | Beta apoptosis | E coli growth | T cruzi inh | rRNA inh HTS | rRNA inh HTS OD600 | rRNA inh HTS RFP | MLL AF4-AF9 inh
CC(C)OCCCNC(=O)c1ccc2c(c1)ncn2C1CCCC1 | 8.7 | -0.6 | i | -5 | 0.77 | -11 | 2 | 0 | -1.5 | 1.1
O=C(CCc1ccccc1)Nc1ccc(NC(=O)C2CCCCC2)nc1 | 3.8 | 0.0 | i | -4 | 0.71 | 6 | 2 | -2 | -1.3 | -2.2
Cc1ccc(N(C(=O)c2ccc3c(c2)OCO3)C2C=CS(=O)(=O)C2)cc1C (centres undefined) | 2.9 | -1.0 | i | 1 | 0.71 | 13 | 4 | -2 | 0.8 | -0.3
O=C(/C=C/c1ccccc1)Nn1cnnc1 | 5.5 | -0.4 | . | 4 | 0.72 | -18 | . | . | . | .
N#C/C(=C(/O)COC(=O)c1ccccc1O)c1nc2ccccc2s1 | . | 0.0 | . | 1 | . | -7 | -12 | -16 | 6.7 | 1.2
O=C(c1ccc(=O)[nH]n1)N1CCN(S(=O)(=O)c2ccccc2F)CC1 | 1.6 | 0.5 | i | 3 | 0.71 | . | 9 | 9 | 0.8 | -5.3
CCCN1CCN(CCCNC(=O)c2ccc(CS(=O)c3ccccc3C)o2)CC1 (centres undefined) | 1.9 | 0.7 | i | -1 | 0.65 | -3 | 22 | 12 | 0.3 | -0.9
O=C(CSc1nnnn1-c1ccc(F)cc1)NC1CCCCC1 | 1.2 | 1.4 | . | -4 | 0.71 | -2 | . | . | . | .
CCOC(=O)C/C(C)=N/NC(=O)CNc1cccc(Cl)c1C | . | -1.1 | i | 0 | . | 10 | -13 | 2 | 0.3 | 0.8
COc1ccc(C2C(C(=O)Nc3cccc(C)n3)c3ccccc3C(=O)N2C)cc1 (centres undefined) | 1.0 | -0.4 | . | 3 | 0.69 | -6 | . | . | . | .
Cc1ccc(C(=O)C2=C(O)C(=O)N(Cc3cccnc3)C2c2cccc(Oc3ccccc3)c2)o1 (centres undefined) | . | 2.7 | i | -1 | . | -7 | -20 | -29 | -3.4 | -0.3
CCn1cc(CN2CCC(n3nccc3NC(=O)CCOc3ccccc3)CC2)c(C)n1 | . | . | i | . | . | -3 | 9 | 23 | 0.3 | 2.8
CCn1c(-c2cccn(Cc3ccc(Cl)cc3Cl)c2=O)n[nH]c1=S | -12 | -0.7 | . | -16 | 0.67 | 6 | 10 | 10 | 4.8 | -2.8
COc1ccc(-c2nc(CSCC(=O)NCC3CCCO3)c(C)o2)cc1OC (centres undefined) | 0.0 | -0.3 | . | . | 0.68 | -13 | . | . | . | .
Cc1cccc(N2CC(C(=O)Nc3nnc(SCC(=O)N4CCOCC4)s3)CC2=O)c1 (centres undefined) | 0.3 | 1.2 | i | -10 | 0.72 | -9 | 10 | 12 | 4.2 | -2.3
CCN(CC(=O)Nc1ccc(NC(C)=O)cc1)C(=O)/C=C/c1ccc([N+](=O)[O-])cc1 | 7.0 | -0.3 | i | 7 | 0.7 | -6 | 2 | 18 | 0.4 | -14
O=C(Cc1cccc(NC(=O)C2CCN(C(=O)C3CC3)CC2)c1)Nc1cccc(C(=O)N2CCCC2)c1 | 0.3 | 0.0 | i | -3 | 0.75 | . | -19 | -5 | -9.1 | -0.9
Cc1ccc(-c2csc(NC(=O)COc3ccc(N(C)S(=O)(=O)c4ccc(C)cc4)cc3)n2)cc1 | -0.3 | ? | i | 3 | 0.71 | 41 | 7 | 4 | 4.8 | 3.6
Cc1nc2ncnn2c(C)c1CCC(=O)NC(C)CCc1ccco1 (centres undefined) | 1.0 | 0.6 | . | 3 | 0.73 | -13 | . | . | . | .
O=C(CCCNC(=O)c1ccc(Cl)cc1)NCc1ccccc1Cl | 1.5 | 1.7 | i | 0 | 0.64 | -7 | 1 | 7 | 0.8 | 0.0
COc1cccc(NC(=S)N2CCN(Cc3ccccc3)CC2)c1 | -0.1 | -0.4 | . | -10 | 0.69 | -5 | . | . | . | .
COc1ccc(NC(=O)CSc2nc3ccccc3c3nc4ccccc4n23)cc1 | -2.1 | 0.2 | i | 4 | 0.71 | . | -1 | -3 | 7.6 | -5.4
CCn1cc(C(=O)NCC(=O)NCCCN2CCOCC2)c(=O)c2cc3c(cc21)OCO3 | -1.5 | 0.8 | i | -4 | 0.66 | -16 | 1 | -1 | 1.1 | 2.5
O=C(CSc1nnc(-c2ccncc2)o1)Nc1cccc(Cl)c1 | -2.6 | -1.1 | i | 2 | 0.66 | . | . | . | . | 0.4
Cc1cc(C)nc(NC(=O)c2ccc(OC(C)C)cc2)n1 | 2.7 | -1.7 | . | 0 | 0.67 | -6 | . | . | . | .
The list continues:
SMILES | UCH37 inh | A1 inh | FGF22 binding | Beta apoptosis | E coli growth | T cruzi inh | rRNA inh HTS | rRNA inh HTS OD600 | rRNA inh HTS RFP | MLL AF4-AF9 inh
Cc1ccc(S(=O)(=O)CCC(=O)NCCC2=CCCCC2)cc1 | 0.5 | 0.1 | i | 2 | 0.63 | -8 | -8 | -13 | -2.5 | -14
CCOC(=O)C1=C(C)N(C)C(=S)NC1c1c(OCC)ccc2ccccc12 (centres undefined) | 1.9 | 0.0 | i | 0 | 0.72 | 1 | 6 | 4 | 5.3 | 0.9
COc1ccccc1CNC(=O)Cn1nc(C(F)(F)F)cc1C | -0.6 | 0.7 | i | -4 | 0.66 | . | 12 | 3 | -1.2 | -1.6
Cc1ccccc1N1CC(C(=O)Nc2nnc(SCc3ccccn3)s2)CC1=O (centres undefined) | 2.2 | 0.9 | i | -1 | 0.66 | 3 | -3 | -8 | 0.8 | -5.6
Cc1sc2ncnc(SC(C)C#N)c2c1C (centres undefined) | 1.8 | 0.2 | i | . | 0.71 | -11 | 1 | 0 | 3.5 | 6.8
COc1ccc(NC(=O)c2cc3n(n2)C(C(F)(F)F)CC(c2ccco2)N3)cc1 (centres undefined) | -2.3 | 0.1 | . | -7 | 0.76 | -6 | . | . | . | .
N#CCCN(C(=O)Nc1ccc(Cl)cc1)c1ccccc1 | -0.4 | ? | . | 0 | 0.75 | -1 | . | . | . | .
COc1cc(NC(=O)CCCn2c(=O)oc3ccccc32)cc(OC)c1 | 2.1 | 0.3 | i | -2 | 0.7 | . | -4 | -7 | 6.9 | -0.8
COc1cccc(-c2cc(C(F)(F)F)n3nc(C(=O)Nc4c(C)n(C)n(-c5ccccc5)c4=O)cc3n2)c1 | 3.6 | 0.3 | . | -7 | 0.71 | 16 | -7 | -6 | 0.3 | 0.1
Cc1nn(Cc2ccccc2)c(C)c1CNC(=O)[C@H](C)N=C1NS(=O)(=O)c2ccccc21 | 1.4 | 0.3 | i | 4 | 0.7 | . | 1 | 5 | -0.8 | 1.3
CCOC(=O)c1ccc(NC(=O)c2nc[nH]c2C(=O)N[C@@H](CCCCNC(=O)OC(C)(C)C)C(=O)OC(C)(C)C)cc1 | 0.6 | -0.3 | i | 23 | . | 33 | 3 | -9 | 7.0 | 3.4
CN(C)CCCN(C(=O)c1ccc2c(c1)CCCC2)c1nc2ccc(Cl)cc2s1 | -0.3 | 0.0 | i | 17 | 0.56 | 45 | -52 | -80 | -24 | 27*
CCCCCCSc1nc2c(c(=O)[nH]c(=O)n2C)n1C | 4.8 | . | i | -4 | 0.74 | -14 | -2 | 10 | -1.6 | -15
COc1ccc(S(=O)(=O)Nc2ccccc2C(F)(F)F)cc1 | 0.0 | 2.0 | . | 1 | 0.7 | -9 | . | . | . | .
COc1cc(Nc2ccc(S(=O)(=O)N3CCN(C)CC3)cc2[N+](=O)[O-])cc(OC)c1 | -1.3 | -0.5 | i | 0 | 0.7 | 25 | 11 | 14 | -4.2 | -1.5
C=CCc1ccccc1OCC(O)CN1CCN(c2ccc(OC)cc2)CC1 (centres undefined) | 6.8 | -0.3 | . | -2 | 0.69 | 21 | . | . | . | .
O=C(NCc1ccc2c(c1)OCO2)C1CCC(CNS(=O)(=O)c2cccc3nsnc23)CC1 (centres undefined) | 6.2 | 1.4 | i | -1 | 0.77 | 1 | 9 | 26 | -3.0 | -6.4
COc1cc(CC(NC(C)=O)C(=O)NC2CCN(c3nc(OC)nc(OC)n3)CC2)cc(OC)c1 (centres undefined) | -3.4 | 1.2 | i | -1 | 0.69 | 0 | 7 | 8 | 2.7 | -1.2
CCOC(=O)C1CCN(c2c(NCCCN3CCN(Cc4ccccc4)CC3)c(=O)c2=O)CC1 | 3.2 | -0.7 | . | 0 | 0.69 | 0 | . | . | . | .
CC(C)N(C(C)C)S(=O)(=O)c1ccc(NN)nc1 | 1.1 | -0.5 | i | 2 | 0.68 | 11 | 9 | 4 | -8.7 | 1.4
Cc1cccc(C)c1NC(=S)NC(C)CCc1ccccc1 (centres undefined) | -0.3 | 0.2 | i | 39 | 0.7 | 2 | -15 | -7 | -4.8 | -3.1
O=C1COc2ccc(C(=O)COC(=O)CCSc3ccc(Cl)cc3)cc2N1 | -1.3 | 0.4 | . | 3 | 0.71 | 0 | 2 | 4 | -4.1 | -0.7
CC1=Nn2c(nnc2-c2n[nH]c3c2CCC3)SC1 | 5.5 | 0.5 | . | -4 | 0.75 | 3 | . | . | . | .
COc1ccc(CCNC(=O)c2ccc(N3CCCCS3(=O)=O)cc2)cc1OC | 2.6 | -0.6 | i | -3 | 0.67 | -19 | 5 | 5 | 0.8 | -5.2
CCC1Sc2ccc(S(=O)(=O)CCC(=O)Nc3cc(C)ccn3)cc2NC1=O (centres undefined) | 0.2 | -0.3 | i | -14 | 0.73 | -1 | 0 | 0 | -0.1 | -2.3
O=C1CC2(CCCCCC2)Oc2ccc(Cl)cc21 | -8.8 | 0.2 | i | 1 | 0.69 | -2 | 1 | -8 | -4.6 | -2.6
NC(=O)C(c1ccc(Br)cc1)c1ccc(C(=O)c2ccccc2)cc1 (centres undefined) | -0.4 | -1.8 | i | 9 | 0.68 | 8 | -26 | -54 | 8.0 | 3.0
O=C(CCc1nnc(CCCCc2ccccc2)o1)NCCN1CCCCC1=O | . | 0.0 | i | -8 | . | 0 | 12 | 18 | 4.3 | 2.0

Filtered by structure, those above containing a nitro group on carbon
SMILES | UCH37 inh | A1 inh | FGF22 binding | Beta apoptosis | E coli growth | T cruzi inh | rRNA inh HTS | rRNA inh HTS OD600 | rRNA inh HTS RFP | MLL AF4-AF9 inh
CCN(CC(=O)Nc1ccc(NC(C)=O)cc1)C(=O)/C=C/c1ccc([N+](=O)[O-])cc1 | 7.0 | -0.3 | i | 7 | 0.7 | -6 | 2 | 18 | 0.4 | -14
COc1cc(Nc2ccc(S(=O)(=O)N3CCN(C)CC3)cc2[N+](=O)[O-])cc(OC)c1 | -1.3 | -0.5 | i | 0 | 0.7 | 25 | 11 | 14 | -4.2 | -1.5

Compound activity (PubChem)
